# Sa growth 42C: S. aureus growth inhibition at 42 and 30 °C, primary screen, LtaS inhibitor project, RN4220, two temperatures | OD600, 20 h, 42 °C; active compounds read low | relative growth, % (concentration not given with the values) | hit rate 0.53% among 170,000 | AID 720641, 2013;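 active = growth at 42 °C up to 50% and 20 or more points under that at 30 °C, or under 10% at both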;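 also: 300 nL library stock went into each well; scaled to the means of positive and negative controls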
# HCMV NEC inh: inhibitors of HCMV UL50-UL53 interaction, biochemical, HTRF; normalized percent inhibition; inhibition, % (concentration not given with the values); hit rate 0.15% among 190,000;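 active = both replicates at 50% or more, plus weaker picks with an unusually low signal ratio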;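 also: stock transfer was 100 nL into about 20 µL; 0% = negative control wells and 100% = wells with untagged competitor protein; inactives centre near -12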
# GIV-Gai inh: inhibitors of GIV peptide binding to Galpha-i3, primary screen, biochemical, fluorescence polarization, FITC-GIV GBA peptide, rat Galphai3; Guanine nucleotide-binding protein G(i) subunit alpha-3 (Rattus norvegicus), P08753; 90 min; active compounds read low; scaled: aluminum fluoride 0%, vehicle 100%; percent of control (FP), % (test concentration not listed); hit rate 0.42% among 210,000; AID 1224905, 2016;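 active = replicate mean at 85% of control or lower, very high polarization wells dropped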;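 also: lower values mean more displacement of the GIV peptide from Galpha-i3; wells of about 15 µL received 100 nL stock; the first replicate is given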
# Target sequence (P08753 whole entry, looked up): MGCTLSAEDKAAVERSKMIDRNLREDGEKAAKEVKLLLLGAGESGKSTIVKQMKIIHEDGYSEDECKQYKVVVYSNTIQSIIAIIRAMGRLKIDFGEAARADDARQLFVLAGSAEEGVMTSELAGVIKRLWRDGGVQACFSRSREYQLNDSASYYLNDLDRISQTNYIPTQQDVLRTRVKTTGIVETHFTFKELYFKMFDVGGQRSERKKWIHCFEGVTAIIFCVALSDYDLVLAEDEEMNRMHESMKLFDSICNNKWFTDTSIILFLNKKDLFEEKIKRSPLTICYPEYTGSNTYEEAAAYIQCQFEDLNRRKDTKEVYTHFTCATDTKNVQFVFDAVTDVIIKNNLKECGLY
# Sa growth 42C second temp: second read-out of Sa growth 42C, no call of its own (marks repeat the call); relative growth, %; measured here: growth at 30 °C;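 optical density after 20 h as mean of two plates; 100% = untreated growth and lower means inhibition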
# Starred values were filed as active, the others as inactive; nt = not tested or not shown; & = joins results of further samples.
structure	Sa growth 42C	Sa growth 42C second temp	HCMV NEC inh	GIV-Gai inh
O=C(Nc1ccc(-c2ccccc2)cc1)C1CC1c1ccccc1 (stereo not given)	77	73	-1	nt
CC(=O)N1CCCc2cc(S(=O)(=O)N3CCN(c4cccc(C(F)(F)F)c4)CC3)ccc21	110	96	nt	105
Cc1cccc(NC(=O)CSc2nc(-c3ccco3)cc(C(F)(F)F)n2)c1C	91	89	-31	97
O=c1[nH]c2c(s1)C(c1ccccc1)C1C3CCC(C3)C1S2 (stereo not given)	105	83	-6	107
O=C(Cc1ccc(F)cc1)NC1CCSC1=O (stereo not given)	106	95	-3	104
CCOc1ccc(NC(=O)CN2C(C(=O)OC)=C(c3ccccc3)c3cc(Cl)ccc3S2(=O)=O)cc1	93	90	-2&-23	102&105
O=C1Nc2ccccc2/C1=C/c1ccc(N2CCOCC2)cc1	94	83	-49	nt
CC1CC(=O)Nc2ccccc2N1S(=O)(=O)c1ccc(F)cc1F (stereo not given)	96	100	6	98
CN(C)c1nc(OCCOC(=O)c2ccccc2)nc(N(C)C)n1	nt	nt	-16	97
CCOc1ccc(CCNC(=O)c2ccc3c(c2)N(Cc2cccc(Cl)c2)C(=O)c2ccccc2S3(=O)=O)cc1OCC	140	106	nt	107
COc1ccc(-c2nn3c(N4CCN(C)CC4)cc(C)nc3c2C)cc1OC	nt	nt	-22	102
CCC(C)(C)n1nnnc1CN(Cc1ccc(Cl)cc1)CC1CCCO1 (stereo not given)	104	75	-9	100
CC1CCN(c2cc(NCc3ccccc3)c3c4c(onc24)-c2ccccc2C3=O)CC1	nt	nt	-71	-4.4*
COc1cccc(-c2nc(SCC(=O)Nc3ccc4c(c3)OCCO4)c(-c3ccc(C)cc3)[nH]2)c1	98	73	-9	104
CCOc1ccccc1C(=O)Nc1ccc2c(c1)N(C)C(=O)c1ccccc1S2	97	88	nt	105
Clc1ccc(CNc2nc3ccccc3[nH]2)cc1Cl	10	0	nt	101
Cc1cc(C)nc(/N=C2\NC(=O)CC(C(=O)O)N2c2cccc(Cl)c2)n1 (stereo not given)	101	92	-4	nt
CC1CN(C(=O)CSc2nnc(-c3cccs3)n2N)CC(C)O1 (stereo not given)	82	88	-27	nt
Cc1cc(C)c(NC(=O)C(C)OC(=O)C2CCCCC2)c(C)c1 (stereo not given)	90	83	-17	nt
O=C(CSC1=NS(=O)(=O)c2ccccc21)Nc1ccccc1	69	73	-17	66*
CCNc1nc(NCC)nc(OCC#N)n1	107	102	-7	98
CC(=O)Nc1nc2ccc(NC(=O)c3c([N+](=O)[O-])cnn3C)cc2s1	nt	nt	-93	96
Cc1cccn2c(=O)c(/C=C3\SC(=S)N(Cc4ccccc4)C3=O)c(N3CCN(C)CC3)nc12	nt	nt	-13	122
Cc1ccc(Nc2cc(C(=O)NCCC(C)C)c3ccccc3n2)cc1C	82	87	nt	109
CSc1ncn(-c2nc(N(C)C)nc(N3CCCCCC3)n2)n1	nt	nt	-7	101
COCCN1C(=O)CS/C1=C(/C#N)C(=O)NCCc1ccccc1	96	94	-8	nt
Cc1onc(-c2ccccc2Cl)c1C(=O)N1CCCCC1C(=O)O (stereo not given)	106	96	5	107
COc1ccc(-c2nnc(SC(C)c3nc4ccccc4c(=O)[nH]3)n2CC2CCCO2)cc1 (stereo not given)	89	84	-7	nt
Cc1ccc2c(=O)cc(C(=O)Nc3ccc(S(=O)(=O)Nc4ncccn4)cc3)oc2c1C	103	84	-31	101
O=C(Nc1ccccc1)Nc1ccc2c(c1)C(=O)OC2	109	52	7	98
Fc1ccccc1CNC1CCCC1	114	95	-23	103
Cc1ccc(C)n1-c1ccc(C(=O)N(C)CCCc2[nH]nc(N)c2C#N)cc1	111	81	-1	nt
N#CC1=C(N)N(c2cccc(Cl)c2)C2=C(C(=O)CCC2)C1c1cc(CN2CCOCC2)cs1 (stereo not given)	107	89	8	104
CCCc1ccc(S(=O)(=O)N2CCC(Oc3ccc(-n4cnnn4)cc3)CC2)cc1	96	89	-18	93
COc1ccccc1N1CCN(CCCNC(=O)c2nnc(Cc3c(F)cccc3Cl)o2)CC1	107	82	-7	103
Cc1ccc(CNC(=O)CS(=O)(=O)c2cccc3nsnc23)cc1	112	95	nt	104
Cc1ccc2c(c1)c1c(c(=O)n(-c3cccc(Cl)c3)c(=O)n1CC(N)=O)n2C	107	91	nt	105
COc1cc(C)c(Cl)cc1S(=O)(=O)N1CCN(c2cc(N(C)C)nc(C)n2)CC1	nt	nt	-14	99
O=C(OCc1nc2ccccc2s1)C12CC3CC(CC(O)(C3)C1)C2	123	96	-8	nt
Cc1ccc(-c2csc3ncn(Cc4ccncc4)c(=O)c23)cc1	nt	nt	1	94
O=C1CCCC2=C1C(c1ccccc1)c1c([nH]n(-c3ccccc3)c1=O)N2 (stereo not given)	103	81	-24	100
CCCn1c2ccc(F)cc2c2nnc(SCCN3CCCCC3)nc21	100	98	-65	110
CC(C)(C)c1ccc(NC(=O)c2ccsc2)cc1	93	80	-84	106
CCOc1ccc(CCNC(=O)c2ccc(-n3nnc4cccnc43)cc2)cc1OCC	nt	nt	-42	113
O=C(Nn1c(SCc2ccc(F)cc2)nc2ccsc2c1=O)c1ccccc1	102	61	nt	104
CCOc1ccc(S(=O)(=O)N(CC(=O)NCCSc2ccc(C)cc2)c2ccccc2)cc1	88	89	-32	101
Cc1cc(C(=O)COc2ccc3oc4c(c3c2)CCCC4)c(C)n1Cc1cccs1	98	93	-23	nt
O=C(CSc1nnc(-c2cccs2)o1)Nc1ccc2c(c1)OC1(CCCCC1)O2	110	101	-1	nt
CCOc1ccc(NC(=O)c2cn3c4c(ccc(Cl)c4c2=O)OC(C)C3)cc1 (stereo not given)	110	92	nt	109
CC1(C)CC(NC(=S)Nc2ccc(S(N)(=O)=O)cc2)CC(C)(C)N1	95	92	nt	105
CCC(Sc1nc2nccnc2c(=O)n1Cc1ccc(F)cc1)C(=O)NC1CCCCC1 (stereo not given)	111	67	-44	98
O=c1c2ccccc2nnn1CSc1nc2cc(Cl)ccc2s1	108	97	-24	nt
COC(=O)C1CCCCCC1=O (stereo not given)	96	100	12	nt
CC(C)n1nc(SCC(=O)Nc2ccccc2)n2c(=O)c3c(nc12)-c1ccccc1CC3(C)C	nt	nt	-5	103
O=C1C(Nc2ccccc2)=C(n2nnc3ccccc32)C(=O)c2ccccc21	86	46	-4	105
CCOc1ccc(C(=O)Nc2ccc3c(c2)C(=O)N(C)C3=O)cc1	90	82	-22	100
Nn1cnnc1SCc1ccccc1Oc1ccccc1	102	92	-10	nt
Cc1[nH]c2ccccc2c1C1=CCN(S(=O)(=O)c2ccccc2)CC1	115	80	nt	106
NC(=O)CSc1nnc(-c2cccc(Cl)c2)o1	nt	nt	-12	106
CC(C)C(=O)N1CCN(C2c3ccccc3CC2NS(=O)(=O)c2ccccc2)CC1 (stereo not given)	83	86	-16	nt

# The list goes on:
structure	Sa growth 42C	Sa growth 42C second temp	HCMV NEC inh	GIV-Gai inh
CCOc1ccccc1NC(=O)CSc1nc2nccnc2c(=O)n1Cc1ccc2c(c1)OCO2	105	86	nt	96
COc1ccc(C(=O)NCC(c2cccnc2)N2CCN(c3ccc(F)cc3)CC2)cc1 (stereo not given)	104	81	-26	107
N#C/C(C(=O)N1CCCCC1)=C1/SC=C(c2ccccc2)N1c1ccccc1	102	73	-6	108
O=C(Nc1cccc(O)c1)c1cc(-c2ccccc2F)no1	105	90	nt	105
COc1cccc(-c2nc(COC(=O)c3cc(C)on3)cs2)c1OC	112	97	6	nt
CCC(=O)N1c2nc(-c3ccco3)nn2C2(CCCCC2)[C@@H]2CCCC[C@@H]21	105	91	21	106
O=C(Nc1cccc(C(F)(F)F)c1)Nc1nc2ccccc2[nH]1	19	18	-18	nt
Cc1cccc(C(=O)NCC(=O)OCc2cc(=O)n3nc(C4CCCCC4)sc3n2)c1	84	90	nt	104
CC(=O)Nc1ccc(NC(=O)C2(c3ccccc3)CCCC2)cc1	69	89	nt	106
COc1ccc(-c2[nH]nc3nc(-c4cc(Br)ccc4OC)cc(C(=O)O)c23)cc1	125	92	nt	105
O=C(Nc1cc(C(F)(F)F)ccc1Cl)c1cc(-c2cccs2)nc2ccccc12	98	81	-34	105
O=C1CC(C2CCCO2)C(=O)N1c1cccc(C(F)(F)F)c1 (stereo not given)	101	87	nt	98
Cc1ccc(CCNC(=O)Cn2ncc3c(=O)oc4ccc(C)cc4c32)cc1	94	90	1	104
CCCN(CCC)C(=O)CSc1nnc(-c2cc3sccc3n2C)n1-c1c(C)cc(C)cc1C	88	84	nt	98
CCOC(=O)c1c(S(=O)(=O)N2CCC(C(=O)NCc3ccc(F)cc3)CC2)c(C)n(C)c1C	125	90	nt	106
CCN(CC)C(=O)Cn1c(=O)cc(C)c2c(C)nn(-c3cccc(Cl)c3C)c21	104	92	nt	99
O=C(c1ccc(OCCCc2cnc[nH]2)cc1)C1CC1	nt	nt	-27&-23	101
NS(=O)(=O)c1ccc(-c2ccc(/C=C3\C(=O)Nc4cc(Cl)ccc43)o2)cc1	105	93	-25	nt
Clc1ccc(NCc2ccccc2)cc1	73	84	-14	nt
CCc1cc2c(SC(C)C(N)=O)ncnc2s1 (stereo not given)	97	84	-11	nt
CCN(C(=O)CSc1nc2nccnc2c(=O)n1Cc1ccccc1Cl)c1ccccc1	nt	nt	-27	105
CCCCN(C)S(=O)(=O)c1ccc(NC(=O)c2ccncc2)cc1	95	86	-23	nt
CCOc1ccc(C2C(C#N)=C(N)Oc3c2ccc(=O)c2c(C)oc(C)c32)cc1 (stereo not given)	103	77	nt	98
CCc1ccc(-c2nn(-c3cc(N4CCOCC4)ccc3[N+](=O)[O-])c(=O)c3ccccc23)cc1	nt	nt	6	105
COc1ccc(F)cc1S(=O)(=O)NCCc1sc2nc(-c3ccc(F)cc3)nn2c1C	108	89	nt	103
CCc1ccccc1NC(=O)NCCn1c(-c2ccc(C)cc2)nc2ccccc21	nt	nt	-9	102
COc1cc2ccccc2cc1C(=O)Nc1ccc2oc(-c3cccc(C)c3)nc2c1	102	94	-62	110
CCCn1c(SCC(=O)Nc2cccc(CC)c2)nc2c(oc3ccccc32)c1=O	87	89	-22	104
CC(C1CC1)n1nccc1NC(=O)COc1ccc(F)cc1 (stereo not given)	nt	nt	-6	104
Cc1csc(=Nc2cccnc2)n1CC1CCCCC1	83	56	-3	nt

# Record cards (already shown). Values in the order: Sa growth 42C | Sa growth 42C second temp | HCMV NEC inh | GIV-Gai inh
# Entry for `CCCn1c(SCC(=O)Nc2cccc(CC)c2)nc2c(oc3ccccc32)c1=O` → 87 | 89 | -22 | 104
# Entry for `CCc1ccccc1NC(=O)NCCn1c(-c2ccc(C)cc2)nc2ccccc21` → nt | nt | -9 | 102
# Entry for `N#C/C(C(=O)N1CCCCC1)=C1/SC=C(c2ccccc2)N1c1ccccc1` → 102 | 73 | -6 | 108
# Entry for `CCOc1ccc(C2C(C#N)=C(N)Oc3c2ccc(=O)c2c(C)oc(C)c32)cc1` (stereo not given) → 103 | 77 | nt | 98
# Entry for `COc1ccc(F)cc1S(=O)(=O)NCCc1sc2nc(-c3ccc(F)cc3)nn2c1C` → 108 | 89 | nt | 103

# Next records follow:
structure	Sa growth 42C	Sa growth 42C second temp	HCMV NEC inh	GIV-Gai inh
CC(=O)N1c2c(cc(Br)cc2S(=O)(=O)CCC(=O)NC2CCCC2)CC1C (stereo not given)	86	86	-1	106
CCS(=O)(=O)c1ncc(N(Cc2ccco2)Cc2sccc2C)c(C(=O)Nc2ccc(C)cc2C)n1	101	88	-19	100
COc1cccc(CNC(=O)c2ccc3nc(N4CCCCC4)sc3c2)c1OC	101	85	-28	93
CCOC(=O)c1cc(NC(=O)CC(C)(C)CC(=O)O)ccc1N1CCCCC1	102	87	12	100
COc1ccc(N2CCN(CCN3CCCCC3)CC2)cc1	114	79	2	107
CC(NC(=O)COc1ccc(C#N)cc1)C1CC2CCC1C2 (stereo not given)	103	85	-27	nt
N=P(N1CCOCC1)(N1CCOCC1)C12CC3CC(CC(C3)C1)C2	93	94	-1	nt
CC1CC(C)CN(C(=O)COC(=O)c2cc(Cl)cc(Cl)c2)C1 (stereo not given)	110	90	-19	nt
CC1=CC(=C2C(=O)c3ccccc3C2=O)C=C(C)N1C(C)C	93	80	-113	73*
NC(=O)NC(=O)/C=C/c1ccccc1O	72	87	-72	nt
O=C(CSc1nc2ccccc2o1)Nc1cccc(C(F)(F)F)c1	nt	nt	-11	99
CCOc1ccc(NC(=O)CN(c2ccccc2OCC)S(=O)(=O)c2ccccc2)cc1	89	86	-47	106
Cc1cc(Br)ccc1SCC(=O)OCC(=O)NC1CC1	102	84	-29	nt
COc1cccc(NC(=O)Cn2c(=O)n(Cc3ccc(F)cc3)c(=O)c3sc4ccccc4c32)c1	99	84	-16	101
S=C(Nc1ccc(Cl)cc1)NN1CCOCC1	96	87	8	105
